Screens from PubChem BioAssay.
AF4-AF9 inh – inhibitors of AF4 peptide binding to AF9, primary screen, biochemical, AlphaScreen, biotin-AF4 peptide, FLAG-AF9, single point; Protein AF-9 (Homo sapiens), P42568; inhibition, % at 10 µM; actives 0.47% (n = 350,000); AID 651704, 2012;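 active = every replicate reaching a set inhibition limit, whatever the replicate mean, cut at about 25% in these data; inconclusive = mean inhibition reaches that limit but some replicates miss it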;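 note: 0% = plate neutral control median and 100% = total signal loss; the record names both 10 and 1 µM as test concentration; the first replicate is given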
Vif A3G – inhibitors of Vif binding to APOBEC3G peptide, primary screen, biochemical, TR-FRET, GST-Vif 1-94, biotin-A3G peptide, dose response retest (AID 1117319); actives 0.57% (n = 260,000); TR-FRET GST-Vif / biotin-A3G peptide binding; higher % means a stronger effect; test concentration not given here; strong numbers were not always called active; Virion infectivity factor (Human immunodeficiency virus type 1 group M subtype B (isolate …; one-dose inhibition, %; IC50 in µM for titrated hits;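 active = above the screen mean plus three standard deviations and confirmed in dose response; inconclusive = results disagree or hit not tested in dose response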;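 note: Vif residues 1-94 fused to GST binding biotinylated APOBEC3G peptide 110-148; 0% = full assay without inhibitor and 100% = GST in place of GST-Vif; retest series ran down from 100 µM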
UCH37 inh – inhibitors of human UCH37 deubiquitinase, primary screen, biochemical, Ub-AMC cleavage, fluorescence; AID 588478, 2011; inhibition, % (no concentration beside the values); purified proteasome/UCH37; actives 0.33% (n = 330,000);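 active = mean of two replicates above 20%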;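 note: 0% = compound-free wells with enzyme and 100% = wells lacking proteasome; stock transfer was 100 nL into about 20 µL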
Target sequence (Q9Y5K5 whole entry, looked up): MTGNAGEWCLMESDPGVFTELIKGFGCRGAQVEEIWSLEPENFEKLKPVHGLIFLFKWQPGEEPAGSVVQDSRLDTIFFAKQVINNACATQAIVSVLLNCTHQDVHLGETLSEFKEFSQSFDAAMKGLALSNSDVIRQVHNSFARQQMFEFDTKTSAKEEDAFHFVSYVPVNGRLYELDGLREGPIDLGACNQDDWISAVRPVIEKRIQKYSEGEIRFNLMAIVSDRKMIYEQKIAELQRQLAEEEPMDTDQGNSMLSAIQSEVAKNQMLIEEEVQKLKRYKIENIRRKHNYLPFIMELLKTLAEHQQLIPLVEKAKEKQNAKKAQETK
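assay system = human UCH37 enzyme supplied as purified proteasome complex | amount = proteasome at 0.15 nM in the dispensed enzyme solution | schedule = 30 min compound-proteasome preincubation then 25 min substrate reaction, room temperature | measured by = fluorescence, ex 355 nm, em 460 nm | benchmarks = no-proteasome wells (full inhibition) and compound-free wells (no inhibition)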
RanGTP-Impb inh – inhibitors of RanGTP-importin-beta interaction, primary screen, biochemical, FRET, CFP-Ran, YFP-importin-beta, homogeneous | inhibition, % (no concentration beside the values) | cell-free CFP-Ran/YFP-importin-beta FRET ratio | actives 1.1% (n = 300,000) | Ran GTPase (GTP-bound) - importin-beta complex | AID 2216, 2009;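 active = most replicates above 15%; inconclusive = exactly half above 15%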;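 note: 0% = DMSO wells and 100% = Ran loaded with GDP instead of GTP; wells of about 40 µL received 100 nL stock; the first replicate is given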
FGF22 binding – binders of human FGF22 protein, primary screen, FGF22 synaptogenesis inhibitor project, biophysical, thermal shift, single point; recombinant FGF22 thermal shift, SYPRO orange fluorescence; percent of sucrose octasulfate shift, DMSO zero; Fibroblast growth factor 22 (Homo sapiens), Q9HCT0; calls only at 9.99 µM; actives 1.5% (n = 340,000);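 active = melting point raised past a set limit in the mean and every replicate; inconclusive = no clear call; three in four hits are not shown here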
Target sequence (Q9HCT0 whole entry, looked up): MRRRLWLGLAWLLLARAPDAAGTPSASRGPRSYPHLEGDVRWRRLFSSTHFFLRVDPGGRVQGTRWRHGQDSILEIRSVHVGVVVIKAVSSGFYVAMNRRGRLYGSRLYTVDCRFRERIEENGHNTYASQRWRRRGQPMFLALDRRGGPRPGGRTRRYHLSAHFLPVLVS
Ecoli growth – E. coli growth inhibition, primary screen, OD600 | actives 0.21% (n = 330,000) | OD600 absorbance (no concentration beside the values) | Escherichia coli growth, 23 h; active compounds read low;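 active = OD600 absorbance below the run mean of sample wells minus 3.6 SD, in any replicate, cut at about 0.56 in these data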;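 note: stock transfer was 300 nL into about 60 µL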
HNF4A DNA FP – change in binding of human HNF4A to DNA, primary screen, biochemical, fluorescence polarization, FITC-DNA. 1 h. actives 0.3% (n = 360,000). Hepatocyte nuclear factor 4-alpha (Homo sapiens), P41235. activity change, % at 10 µM. AID 1224865, 2016; in the data active = activity change above about 30%, passing the limit was not always enough;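 note: controls were the assay level and a saturating level of protein; the project sought stronger binding though the title names inhibitors; some compounds called inactive have numbers as strong as hits; positive values seem to mean higher polarization but the record does not say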
Target sequence (P41235 whole entry, looked up): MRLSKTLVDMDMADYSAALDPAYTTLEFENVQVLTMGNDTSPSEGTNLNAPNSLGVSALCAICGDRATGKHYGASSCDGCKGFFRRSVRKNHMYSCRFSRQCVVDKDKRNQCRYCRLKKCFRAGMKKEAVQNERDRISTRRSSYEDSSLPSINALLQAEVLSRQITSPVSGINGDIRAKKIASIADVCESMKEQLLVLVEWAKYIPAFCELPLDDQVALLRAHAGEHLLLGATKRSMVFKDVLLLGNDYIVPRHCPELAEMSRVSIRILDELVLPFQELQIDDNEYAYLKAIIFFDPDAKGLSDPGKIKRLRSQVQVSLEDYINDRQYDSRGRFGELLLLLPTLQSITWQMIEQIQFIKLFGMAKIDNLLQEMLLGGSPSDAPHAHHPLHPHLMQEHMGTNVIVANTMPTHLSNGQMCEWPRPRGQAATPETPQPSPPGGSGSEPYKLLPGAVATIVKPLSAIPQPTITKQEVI
The depositor's hits bear a star; i = inactive; ? = inconclusive; . = not tested or not shown; & = joins results of further samples. These rows are one share of the data (hit frequency here may not be typical).

SMILES	AF4-AF9 inh	Vif A3G	UCH37 inh	RanGTP-Impb inh	FGF22 binding	Ecoli growth	HNF4A DNA FP
c1ccc(Cn2ccnc2-c2ccco2)cc1	.	0%	0.2	0.4	.	0.69	-0.3
CN(c1ccc(OCC(=O)OCC(=O)c2c(N)n(C)c(=O)n(C)c2=O)cc1)S(=O)(=O)c1ccc2ccccc2c1	-2.2	1%	2.3	-3.8	i	0.73	2.9
CCCCCOc1ccc(C(=O)Nc2ccc(S(=O)(=O)Nc3cc(C)on3)cc2)cc1	-16	-9%	3.5	0.8	i	0.75	-4.9
CC(=O)c1cc(O)c2ccccc2c1O	5.4	32%	2.3	-3.2	i	0.6	5.2
CCN(CC)c1ccc(/C=N/NC(=O)Nc2nonc2N)cc1	.	15%	.	3.8	.	.	0.4
C=CCSc1nccc(=O)[nH]1	0.6	2%	3.5	3.3	i	0.72	-1.4
CCN(CC)CCCNC(=O)c1[nH]c2ccccc2c1Sc1ccc(Cl)cc1	11	-7%	0.8	-3.8	i	0.62	13
CC(=O)Nc1c(C)ccc([N+](=O)[O-])c1C	4.1	2%	2.3	.	i	0.62	-1.2
COc1ccc(N2CCN(C(c3cccs3)c3nnnn3C3CCCC3)CC2)cc1 (centres undefined)	.	14%	3.1	?	.	0.7	0.3
CCOC(=O)CC(=O)N/N=C/c1c(N)n(C)c(=O)n(C)c1=O	-1.6	32%	.	-3.1	i	.	-5.4
Cc1ccc(CNC(=O)c2cc(C3CC3)nc3c2cnn3C(C)C)cc1	2.4	-5%	-24	.	i	0.64	1.3
O=C(CNC(=S)NC(=O)c1ccc(Br)o1)c1ccccc1	.	.	0.9	3.0	.	0.71	-2.7
Cc1nc(CS(=O)c2ccc(Cl)cc2)cc(N2CCOCC2)n1 (centres undefined)	.	1%	-0.1	1.1	.	0.74	-2.0
O=C1CC(c2ccco2)Cc2nc(NCC3CCCO3)ncc21 (centres undefined)	.	7%	4.2	1.6	.	0.82	2.9
O=C(N/N=C/c1ccc(-c2cccc(C(F)(F)F)c2)o1)c1cccc(F)c1	.	3%	.	0.3	.	.	3.5
COc1cccc2c1cc1c(=O)n(CC(=O)NCCCc3ccccc3)nc(C)n12	.	.	-34	-0.4	.	0.7	1.7
CC(C)=N/N=C(\N)SCc1ccccc1	-11	26%	0.6	-0.2	i	0.69	1.6
CC1=C(C(=O)OCC2CCCO2)C(c2coc3ccccc3c2=O)C2=C(CCCC2=O)N1 (centres undefined)	17	2%	0.9	-0.2	i	0.69	-8.2
COc1cc(OC)c(OC)cc1CN1CCN(C(=O)c2cccc3ccccc23)CC1	8.1	-2%	5.4	2.1	i	0.67	0.6
CCOc1ccccc1C(=O)Nc1cc2c(cc1N1CCCC1)n(CC)c(=O)n2CC	15	5%	0.8	1.3	i	0.67	2.5

Two consecutive compounds from above, quoted:
SMILES	AF4-AF9 inh	Vif A3G	UCH37 inh	RanGTP-Impb inh	FGF22 binding	Ecoli growth	HNF4A DNA FP
COc1cc(OC)c(OC)cc1CN1CCN(C(=O)c2cccc3ccccc23)CC1	8.1	-2%	5.4	2.1	i	0.67	0.6
CCOc1ccccc1C(=O)Nc1cc2c(cc1N1CCCC1)n(CC)c(=O)n2CC	15	5%	0.8	1.3	i	0.67	2.5

The listing picks up; the two compounds before the break are reprinted first.
SMILES	AF4-AF9 inh	Vif A3G	UCH37 inh	RanGTP-Impb inh	FGF22 binding	Ecoli growth	HNF4A DNA FP
COc1cc(OC)c(OC)cc1CN1CCN(C(=O)c2cccc3ccccc23)CC1	8.1	-2%	5.4	2.1	i	0.67	0.6
CCOc1ccccc1C(=O)Nc1cc2c(cc1N1CCCC1)n(CC)c(=O)n2CC	15	5%	0.8	1.3	i	0.67	2.5
CN(C)/C=C(/C(=O)c1ccc(Cl)cc1)S(=O)(=O)c1ccccc1	.	29%	3.0	0.9	.	0.6	-1.9
COc1cccc(NC(=O)c2cncs2)c1	-1.2	-4%	2.1	0.7	i	0.67	-0.2
CCCCCCCN(C(=O)CCl)c1ccccc1C	.	.	5.2	1.4	.	0.68	0.6
CC(C)C[C@H]1COCCS(=O)(=O)N1Cc1ccccc1F	-5.5	.	5.3	-2.6	i	.	-2.7
COc1ccc(OC)c(CN2CCN(Cc3ccc(OC)c(OC)c3OC)CC2)c1	0.9	.	.	.	i	.	-2.1
CC(C)c1ccc(N2C(=O)CC(Sc3nc4ccccc4o3)C2=O)cc1 (centres undefined)	.	-5%	1.5	-1.4	.	0.7	5.2
O=[N+]([O-])c1ccc(Nc2ccc(Cl)cc2)nc1	1.6	?	3.9	?	.	0.64	-5.8
CC1CN(C(=O)c2ccc3c(c2)OCO3)OC(c2ccccc2)O1 (centres undefined)	.	4%	-0.1	1.2	.	0.73	1.1
COc1ccc(NC(=O)N(C)C[C@H]2Oc3ccc(NS(=O)(=O)c4c(C)noc4C)cc3C(=O)N([C@H](C)CO)C[C@@H]2C)cc1	-11	.	2.3	.	i	0.75	1.3
CCN(CC)C(=O)c1ccc(-c2nnc(Nc3ccc(C(=O)N(C)C)cc3)c3ccccc23)cc1	-5.5	10%	.	?	i	.	2.1
CCC1(C)Cc2c(sc3c2c(=O)n(C)c2nnc(SCC(=O)c4ccccc4)n32)CO1 (centres undefined)	.	11%	2.0	-2.6	.	0.68	0.8
Cc1c(C(=O)NCc2cccnc2)oc2ccc(S(=O)(=O)N3CCCCC3)cc12	.	27%	-0.1	2.0	.	0.67	2.1
Cc1cc(Cl)ccc1OCc1nnc(-c2ccccc2C)o1	3.1	.	-2.2	.	i	0.69	-1.1
Cc1ccc(C(=O)Oc2cc(N)n(S(=O)(=O)c3ccc(F)cc3)n2)cc1	-1.4	.	-1.5	-1.8	i	0.66	-1.5
CN(Cc1nc(CC2CC2)no1)CC12CC3CC(CC(C3)C1)C2	-2.6	-3%	5.0	3.1	i	0.7	-6.0
COc1ccc(NC(=O)c2ccc3c(c2)CCN3S(=O)(=O)c2ccccc2)cc1	-0.9	.	2.7	2.4	i	0.67	-0.2
CCOC(=O)CNC(=O)C1c2ccccc2Oc2ccccc21	-1.3	.	6.5	0.0	i	0.67	-1.5
CCN(CC)CCNC(=O)Cn1cnc2sc(C)c(S(=O)(=O)N3CC(C)CC(C)C3)c2c1=O (centres undefined)	0.0	.	-0.6	-3.1	i	0.66	1.1
CS(=O)(=O)N1CCC(C(=O)Nc2ccc(F)cc2F)CC1	.	23%	2.7	-0.8	.	0.71	0.2
Clc1ccc2c(N/N=C/c3cccnc3)ccnc2c1	1.2	2%	.	-0.6	i	.	-0.8
CC(C)CC(=O)CC1(O)C(=O)Nc2ccccc21 (centres undefined)	0.0	0%	1.9	-2.4	i	0.7	1.1
CC(=O)NC(NC(=S)N1CCCCCC1)C(Cl)(Cl)Cl (centres undefined)	2.7	15%	-0.2	.	i	0.72	-2.1
O=C(CSc1nnc(-c2ccccc2Br)o1)N1CCN(C(=O)c2ccco2)CC1	-2.2	1%&-3%	3.8	3.1	i	0.69	1.9
COc1ccccc1C(=O)NCc1n[nH]c(=S)n1Cc1ccccc1	-2.2	-8%	2.7	-1.0	i	0.65	-0.4
CCCOc1ccc(C2C3=C(Nc4nc(N)[nH]c(=O)c42)c2ccccc2C3=O)cc1 (centres undefined)	-21	8%	5.8	9.8	i	0.69	1.6
COc1ccccc1NC(=S)NNC(=O)c1c(Cl)c(C)nn1C	.	-2%	0.5	3.7	.	0.73	-0.6
O=C(CN(Cc1ccccc1)C(=O)CCC(=O)Nc1nccs1)NCC1CCCO1 (centres undefined)	-0.9	.	5.5	?	i	0.64	0.7
C#CCn1c(S(=O)(=O)Cc2ccccc2Cl)nc(-c2ccccc2)c1-c1ccccc1	.	-8%	1.1	-1.2	.	0.7	3.1
O=C(OCCN1C(=O)c2ccccc2C1=O)Oc1ccccc1	0.3	-4%	-0.1	6.8	i	0.7	4.0
COc1ccc(S(=O)(=O)N(C)c2ccc(C(=O)NCc3ccco3)cc2)cc1	2.7	.	2.0	-0.5	i	0.72	0.2
COc1ccc(NC(=O)C2CCCN2S(=O)(=O)c2ccc3c(c2)CCC(=O)N3)cc1 (centres undefined)	1.8	4%	1.9	-1.9	.	0.76	3.5
CC(C)OC(=O)CSc1nnc(Cc2ccccc2)n1CC1CCCO1 (centres undefined)	.	2%	4.1	2.1	.	0.72	-2.2
Cc1cc(C)c(OCCN2C(=O)NC(C)(C)C2=O)c(Cl)c1	.	14%	3.3	1.4	.	0.7	4.4
Cc1nc2nc(SCC(=O)NCCN3CCOCC3)nn2c(C)c1Cc1ccccc1	.	1%	1.0	8.9	.	0.71	-2.4
CN(C)NC1CCS(=O)(=O)C1 (centres undefined)	-7.0	>100µM*	2.8	2.4	i	0.67	1.3
CCNc1nc(NCC)nc(C(=O)Nc2ccccc2)n1	.	9%	2.1	2.4	.	.	3.1
CC(=O)NCCSc1ccc(S(=O)(=O)N2CCCC2)cn1	-0.3	-16%	-2.5	.	i	0.65	0.3
COc1ccc(-n2nc(C(=O)NCC(=O)N3CCC(C)CC3)c3ccccc3c2=O)c(OC)c1	0.8	.	0.3	-2.1	i	0.67	-2.7
CC(C)(C)c1ccc(-c2nnc(NC(=O)c3ccccc3)s2)cc1	.	-1%	-4.2	0.6	.	0.72	-9.7
O=C(O)[C@@H]1CCCN1C(=O)COc1ccc2c3c(c(=O)oc2c1)CCC3	0.8	.	-43	-1.7	i	0.8	-2.3
O=C(N/N=C/C1CC=CCC1)c1cc(-c2cccnc2)nc2ccccc12 (centres undefined)	3.6	0%	.	0.2	i	.	2.5
CCCCCc1cc(=O)oc2c(C(CCN(CC)CC)c3cc(OC)c(OC)c(OC)c3)c(OC)cc(OC)c12 (centres undefined)	13	.	1.7	3.7	i	0.66	2.2
Cc1nc2ccc(NC(=O)c3cccc(C(F)(F)F)c3)cc2o1	.	?	1.1	1.8	.	0.64	-2.8
Nc1nnc(CCS(=O)(=O)c2ccc(Cl)cc2)s1	.	-2%	0.1	2.1	.	0.66	2.6
COc1cccc(CNC(=O)C2CCC(CNc3c(N4CCC(C)CC4)c(=O)c3=O)CC2)c1 (centres undefined)	.	0%	2.6	0.7	i	0.68	5.1
Cc1cc([N+](=O)[O-])nn1CC(=O)NC(C)c1ccccc1 (centres undefined)	-1.6	.	2.3	1.1	i	0.61	-0.9
c1ccc(OCCSc2nnc3sc4ccccc4n23)cc1	3.8	27%	1.8	3.2	i	0.7	0.2
CCc1nc(SCc2cc(Cl)ccc2OC)n[nH]1	.	0%	2.2	1.6	.	0.67	-2.4
O=C1Nc2ccc([N+](=O)[O-])cc2C1(O)N1CCCCC1 (centres undefined)	.	0%	14	-2.5	.	0.7	-1.7
C=CCOc1ccc(/C=N/n2nnnc2N)cc1OC	.	.	.	2.9	i	.	2.0
COc1ccc(Br)cc1CNC(=O)C1CCCN(S(=O)(=O)N2CCC(C)CC2)C1 (centres undefined)	-1.3	-1%	.	.	i	.	3.6
CN(C)c1ccc(C(C(=O)NC2CCCC2)N(C(=O)c2ccco2)C2CC2)cc1 (centres undefined)	-0.3	.	3.0	2.1	i	0.68	0.8
C/C(=C\c1ccccc1)C(=O)NC1CCSC1=O (centres undefined)	.	3%	7.1	-2.5	.	0.71	0.1
COc1ccc(Br)cc1CNC(=O)c1ccc2c(c1)N(C)CCS2	12	.	-38	-0.2	i	0.68	-4.9
